D2 ag: agonists of human D2 dopamine receptor (beta-arrestin). P14416. DiscoveRx PathHunter D2 beta-arrestin, luminescence, 90 min; 100% = 57 uM dopamine signal. activation, % (no concentration beside the values). hit rate 0.084% among 360,000. AID 624465; in the data active = activation above about 40%; inconclusive = about 15% to 40%; inactive = below about 15%; note: compound concentration not given in the record; the text of the record calls up to 30% inactive
Target sequence (P14416 whole entry, looked up): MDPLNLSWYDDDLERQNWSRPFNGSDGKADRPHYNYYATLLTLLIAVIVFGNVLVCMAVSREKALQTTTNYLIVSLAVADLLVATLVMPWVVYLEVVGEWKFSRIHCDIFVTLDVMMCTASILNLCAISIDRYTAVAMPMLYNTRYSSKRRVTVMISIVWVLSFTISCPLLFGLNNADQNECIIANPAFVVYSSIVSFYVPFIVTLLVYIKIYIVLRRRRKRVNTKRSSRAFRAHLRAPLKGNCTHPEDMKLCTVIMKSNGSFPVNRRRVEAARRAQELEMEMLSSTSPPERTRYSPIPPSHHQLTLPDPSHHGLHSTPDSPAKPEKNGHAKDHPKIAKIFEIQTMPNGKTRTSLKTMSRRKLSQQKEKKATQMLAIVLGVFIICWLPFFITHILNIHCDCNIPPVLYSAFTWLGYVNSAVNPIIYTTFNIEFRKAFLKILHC
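DiscoveRx PathHunter D2 beta-arrestin cells (2,100/well) attached overnight, then compound-stimulated 90 min at 37 C in HBSS/10 mM HEPES/0.1% Tween-20 buffer; beta-galactosidase complementation read by luminescence after 1 h at ambient temperature. Dopamine 57 uM final (EC100) as control.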
CtBP-E1A blk: inhibitors of CtBP/E1A interaction | AlphaScreen GST-E1A/His-CtBP binding, 1536-well; active compounds read low; control for the full effect not named in the record | hit rate 0.49% among 340,000 | activity change, % (concentration not given with the values); in the data active means activity change below about -65%; inconclusive means about -30% to -65%; inactive means above about -30%; note: % is set by controls: 0 for no effect and ±100 for the full control effect
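AlphaScreen with 125 nM GST-E1A and 125 nM His-CtBP (5X stocks) in Tris pH 8.0, 300 mM NaCl, BSA, Tween 20, TCEP. Compounds preincubated 2 h at 37 deg C, then glutathione donor/nickel acceptor beads added for 1 h at 37 deg C in dark.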
TRPML1 ag: activates the human TRPML1 channel; hit rate 0.12% among 410,000; activation, % (no concentration beside the values); TRPML1-expressing cells, Ca2+ dye fluorescence, FDSS; host cell line not named in the record; reference of the full effect not given here; Q9GZU1; in the data active = activation above about 50%; inconclusive = about 30% to 50%; inactive = below about 30%; note: 0% is about no effect; the text of the record puts the active cut at 80%
Target sequence (Q9GZU1 whole entry, looked up): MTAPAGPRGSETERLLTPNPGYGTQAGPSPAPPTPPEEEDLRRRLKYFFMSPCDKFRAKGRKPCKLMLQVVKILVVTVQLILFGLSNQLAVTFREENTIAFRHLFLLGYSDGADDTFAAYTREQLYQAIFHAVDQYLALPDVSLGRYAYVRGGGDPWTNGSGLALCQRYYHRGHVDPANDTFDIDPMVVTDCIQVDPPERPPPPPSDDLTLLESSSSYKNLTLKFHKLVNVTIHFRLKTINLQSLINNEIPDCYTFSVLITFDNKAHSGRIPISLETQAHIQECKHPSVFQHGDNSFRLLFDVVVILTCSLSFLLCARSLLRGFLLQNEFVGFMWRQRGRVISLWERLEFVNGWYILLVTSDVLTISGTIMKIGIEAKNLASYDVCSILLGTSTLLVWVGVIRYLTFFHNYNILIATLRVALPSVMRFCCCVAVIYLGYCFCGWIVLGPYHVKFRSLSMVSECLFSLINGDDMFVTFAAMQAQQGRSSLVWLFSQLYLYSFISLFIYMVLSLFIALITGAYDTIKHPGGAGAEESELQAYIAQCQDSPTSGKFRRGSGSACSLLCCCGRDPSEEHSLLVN
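Agonist activity was taken from a 110 s kinetic Ca2+ dye read on the FDSS after pinning compounds onto TRPML1-DL cells. The cells were seeded at 1,500/well with Tet inducer, incubated about 16 h, then dye-loaded at room temperature.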
D2 PAM: potentiates the human D2 dopamine receptor allosterically; P14416; potentiation, % (concentration not given with the values); AID 624464; hit rate 0.23% among 360,000; DiscoveRx D2 beta-arrestin cells, luminescence, 90 min; 100% = 57 uM dopamine signal; active = potentiation of 50% or more; inconclusive = 30% to 50%; inactive = 30% or less;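 note: compound concentration not given in the record; tested on top of an EC20 dose of dopamine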
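D2 cells co-treated with compound plus 50 nM dopamine (EC20) for 90 min at 37 deg C to detect potentiation. Beta-arrestin recruitment was read as enzyme-fragment luminescence after 1 h at ambient temperature. Full response was set by 57 uM dopamine.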
Six1-Eya2 blk: Six1/Eya2 interaction inhibition | Q15475+O00167 | AlphaScreen GST-Six1/His-Eya2 binding, biochemical; active compounds read low; control for the full effect not named in the record | activity change, % (concentration not given with the values) | hit rate 0.56% among 360,000 | AID 651725; in the data active = activity change below about -65%; inconclusive = about -30% to -65%; inactive = above about -30%; note: % is set by controls: 0 for no effect and ±100 for the full control effect
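AlphaScreen with GST-Six1 and His-Eya2 (5X mix: 250 nM and 500 nM), glutathione donor and nickel acceptor beads; buffer 50 mM Tris pH 8.0, 300 mM NaCl, 1 mM TCEP; 1 h at 37 C in the dark.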
PINK1 modulator: changes PINK1 expression | AID 624263 | Potency, µM (highest dose often 76.6 µM), without a hit: at the top dose activation (PINK1 increase), actives largely listed as activators | PINK1 immunofluorescence, high-content cytometry, 24 h | hit rate 0.2% among 410,000; active = well fitted activation curve with a large enough effect; inconclusive = small, poorly fitted or top-dose-only effect; inactive = flat fitted curve, though single readings scatter; cell line not stated here;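 note: potency is the fitted concentration of half-maximal effect; % of control where 0% means no effect; nearly all actives have a fitted effect of over 65% in size; a mitochondrial uncoupler was the plate control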
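Stable cell line, 250 cells/well, 12 h attachment; compounds pinned at 5 concentrations, 24 h; CCCP control. Fixed with nuclear dye, primary antibodies 12 h at 10 degrees C, secondary plus cell stain; laser-scanning cytometer read.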
Starred values were filed as active, the others as inactive; u = inconclusive; x = no result given; [ ] = dose if it differs, or a comment. Hits appear at their usual frequency. Share with any hit: about 1.3%.

SMILES | D2 ag | CtBP-E1A blk | TRPML1 ag | D2 PAM | Six1-Eya2 blk | PINK1 modulator
CS(=O)(=O)N(CC(N)=O)c1ccc(F)c(Cl)c1 | 7.0 | 5.3 | -0.5 | 9.0 | 8.0 | -1.9%
Cc1c(NC(=O)c2ccc(CC(C)C)o2)c(=O)n(-c2ccccc2)n1C | -1.8 | 7.8 | 1.0 | -3.5 | -3.1 | 3.0%
CC(C)CC(NS(=O)(=O)c1ccccc1)C(=O)O (stereo not drawn) | -4.1 | 5.3 | -1.1 | -13.5 | 0.2 | -0.5%
Cc1ccccc1NS(=O)(=O)c1c(C(=O)N2CCCCCC2)c(C)n(C)c1C | -4.0 | -0.9 | -1.0 | 4.4 | -0.9 | 0.0%
CCOC(=O)N1C2=NC(C(=O)OC)=C(C(=O)OC)[C@@H]3N(C)c4ccccc4[C@]23C[C@H]1C(=O)OC | -2.6 | -7.7 | 0.2 | -6.0 | -24.1 | 0.1%
CC1=CC(=O)C2(C)C(C)=C(C)C12C (stereo not drawn) | -1.8 | 0.5 | -0.4 | -5.7 | -0.8 | -0.2%
CCOC(=O)C1=C(C)OC(N)=C(C#N)C1c1cc(F)ccc1F (stereo not drawn) | 1.4 | 9.6 | 1.1 | 6.0 | -0.9 | x
CN(C)CCCNc1ncnc2c1c(-c1ccccc1)cn2-c1ccccc1 | 2.9 | -7.7 | 0.1 | -12.3 | -11.0 | 5.7%
NC(=O)c1cc(Cl)ccc1OCC(=O)Nc1ccc2c(c1)OCO2 | -1.5 | x | -0.5 | -5.7 | -10.5 | 1.6%
N#Cc1ccc(S(=O)(=O)Nc2ccccc2N2CCOCC2)cc1 | 3.6 | 0.2 | 2.6 | -1.6 | -2.1 | -0.3%
COc1nc(=O)n(C2OC(CO)C(O)C2O)cc1C (stereo not drawn) | -1.1 | -1.8 | 0.6 | -3.7 | 6.9 | -3.4%
COc1cc2cnc(C3=CCCCC3)cc2cc1OC | -0.9 | -6.1 | -0.4 | -14.8 | -7.3 | -0.2%
CN1CCN(NC(=O)c2cccs2)CC1 | -4.0 | -10.6 | 0.9 | 0.0 | -2.5 | 4.4%
CCCOCc1ccc(O)c2ncccc12 | -5.2 | -94.0* | 0.0 | -5.3 | -69.8* | 9.1%
CCC1CCc2sc(C(=O)N(C)CC(=O)Nc3ccc(OC)cc3)cc2C1 (stereo not drawn) | -2.6 | -1.3 | 3.0 | 1.8 | -9.6 | 0.5%
Cc1nnc2n1N=C(c1ccc3c(c1)NC(=O)CO3)CS2 | 7.1 | 12.5 | x | -0.8 | -2.3 | 5.4%
Fc1ccccc1/C=N/Nc1nn[nH]n1 | -4.9 | 3.5 | 1.2 | 1.3 | -5.4 | 1.0%
Cc1[nH]n(C(N)=S)c(=O)c1N=Nc1ccc([N+](=O)[O-])cc1Cl | -10.7 | 7.6 | 1.4 | -25.9 | -29.5 | 1.3%
O=C(O)CC/C(=C\c1cc([N+](=O)[O-])ccc1Cl)c1nc2ccccc2s1 | 0.8 | -0.6 | 2.2 | -8.2 | 0.5 | 1.1%
CN(C(=O)CSc1nnnn1C)C1(C#N)CCCCC1 | -1.6 | 4.5 | 0.2 | -3.7 | 1.6 | 0.8%
CC(C(=O)Nc1nc2ccccc2[nH]1)N1C(=O)C2CC=CCC2C1=O (stereo not drawn) | -0.9 | -8.7 | 3.6 | -10.8 | -0.8 | -2.4%
CN(Cc1ccccc1)CC(O)COc1ccc(CNCc2cccnc2)cc1 (stereo not drawn) | 0.1 | -26.9 | -0.4 | -6.9 | 6.8 | 0.5%
C(=N\n1cnnc1)/c1nc2ccccc2[nH]1 | -0.7 | 5.0 | 0.8 | 9.4 | 0.6 | 1.6%
CN(C)CCNC(=O)c1cc2cc(Br)ccc2oc1=O | -0.2 | 4.4 | 2.1 | -6.9 | 1.5 | -1.1%[38.3 µM]
O=C(COc1ccc(F)cc1F)Nc1cccnc1 | -0.3 | 2.0 | -0.6 | -2.5 | 5.8 | -0.1%

Part of the list above in order of formula weight, descending.
SMILES | D2 ag | CtBP-E1A blk | TRPML1 ag | D2 PAM | Six1-Eya2 blk | PINK1 modulator
CCOC(=O)N1C2=NC(C(=O)OC)=C(C(=O)OC)[C@@H]3N(C)c4ccccc4[C@]23C[C@H]1C(=O)OC | -2.6 | -7.7 | 0.2 | -6.0 | -24.1 | 0.1%
Cc1ccccc1NS(=O)(=O)c1c(C(=O)N2CCCCCC2)c(C)n(C)c1C | -4.0 | -0.9 | -1.0 | 4.4 | -0.9 | 0.0%
N#Cc1ccc(S(=O)(=O)Nc2ccccc2N2CCOCC2)cc1 | 3.6 | 0.2 | 2.6 | -1.6 | -2.1 | -0.3%
Cc1nnc2n1N=C(c1ccc3c(c1)NC(=O)CO3)CS2 | 7.1 | 12.5 | x | -0.8 | -2.3 | 5.4%
CN1CCN(NC(=O)c2cccs2)CC1 | -4.0 | -10.6 | 0.9 | 0.0 | -2.5 | 4.4%

Later entries:
SMILES | D2 ag | CtBP-E1A blk | TRPML1 ag | D2 PAM | Six1-Eya2 blk | PINK1 modulator
O=C(O)c1cc(NC(=O)c2ccc3c(c2)C(=O)N(Cc2ccccc2)C3=O)cc(C(=O)O)c1 | -7.7 | -0.7 | 0.7 | -33.9 | u | 2.3%
O=C(O)c1cc(N/N=C/C=C/c2ccccc2)ccc1Cl | -0.1 | -14.6 | 0.0 | 6.6 | -9.9 | -0.7%
O=S1(=O)CCN(Cc2ccc(F)cc2)CC1 | -4.2 | -1.8 | -0.7 | -9.1 | 0.8 | 0.2%
CCc1nnc(NC(=O)CCC(=O)N2CCN(c3cccc(Cl)c3)CC2)s1 | -4.3 | -0.9 | -0.7 | -10.9 | -1.4 | 0.4%
O=C(CC1C(=O)NCCN1Cc1ccc(F)cc1)NC1CCCCCCC1 (stereo not drawn) | -4.1 | x | -1.0 | -13.7 | 4.7 | 22.8%
CCCCOc1ccc(C(=O)N/C(=C\c2ccc(OC)cc2)C(=O)OCc2ccco2)cc1 | -4.2 | 1.0 | 0.9 | -5.7 | -13.2 | 0.9%
Cc1ccccc1-c1nnc(SCC(=O)NCc2ccc3c(c2)OCO3)n1C | 1.3 | 1.5 | -0.9 | 1.7 | 2.2 | 0.6%
COc1ccccc1CNC(=O)CCCC(=O)n1nc(C)c2ccccc21 | -2.1 | 0.1 | 0.1 | -7.6 | 0.2 | -0.5%
Cc1n[nH]c(C)c1CCCOc1ccccc1 | -4.7 | -0.1 | 5.0 | 4.1 | 0.8 | 0.1%
CSCCC(NC(=O)COc1ccccc1)C(=O)N1CCCC(C(F)(F)F)C1 (stereo not drawn) | -6.5 | 6.7 | -1.0 | -10.9 | 0.0 | 2.3%
CCN(CC)C(=O)Oc1ccnc2cc(Cl)ccc12 | -1.9 | 5.5 | -0.4 | -3.8 | 13.8 | 0.0%
On1c(-c2ccco2)nc2c1CCc1nonc1-2 | -2.3 | -0.3 | 0.4 | -5.7 | 3.3 | 1.0%
O=c1[nH]c2ccc(N/C(=N/S(=O)(=O)c3ccccc3)c3ccccc3)cc2[nH]1 | -2.9 | -0.7 | 0.1 | -5.0 | u | -0.4%
Cc1ccc(NC(=O)c2ccc(-n3cccn3)c([N+](=O)[O-])c2)cc1 | 0.2 | -8.9 | -1.0 | 3.2 | -0.3 | -0.8%
O=C1NC(c2ccccc2)N=C2Oc3ccccc3C=C12 (stereo not drawn) | -0.5 | 6.0 | 0.1 | -5.6 | -5.6 | 14.4%
NNC(=O)c1cc(-c2ccc(N)cc2)nc2ccc(Br)cc12 | -4.1 | x | 0.1 | -11.6 | 5.0 | 1.1%
CC(=O)NCc1ccc(C(=O)O)cc1 | -2.1 | 15.6 | 0.5 | -7.0 | 2.1 | 0.1%
C#CCNc1nc(C)nc2c1nnn2Cc1ccccc1F | -5.0 | 0.4 | -1.1 | -11.0 | 0.6 | 0.0%
Cc1ccc(OCC(=O)N/N=C\c2cccn2C)c([N+](=O)[O-])c1 | -3.2 | -0.4 | 0.2 | -7.6 | -2.6 | 1.7%
COc1cc(C(C)=O)ccc1OCC(O)CN1CCN(S(=O)(=O)c2ccccc2)CC1 (stereo not drawn) | 0.3 | 11.0 | 0.3 | -19.2 | 0.7 | -2.8%
C=CCNC(=O)NC(=O)COn1nnc2ccc(S(=O)(=O)N(C)C)cc21 | 1.5 | 5.4 | -0.1 | -13.3 | 6.3 | -0.8%
O=C(COC(=O)c1ccc(S(=O)(=O)Nc2ccccc2)cc1)NCc1ccco1 | 0.7 | -10.9 | 7.4 | 1.9 | -1.7 | x
O=C(Nc1ccccc1Cc1ccccc1)c1ccccc1F | -5.4 | 4.9 | 0.3 | -12.6 | 10.0 | 2.2%
COc1ccc(CCN2C(=O)NC(NC(=O)C(C)(C)C)(C(F)(F)F)C2=O)cc1OC (stereo not drawn) | -0.6 | -3.7 | -0.2 | -13.7 | 1.5 | -1.2%
COc1ccc(C(=O)NC2CC2)cc1OC1CCN(Cc2ccc(SC)cc2)CC1 | -3.2 | -0.3 | 0.2 | -27.8 | -6.6 | -1.0%
Next results.
SMILES | D2 ag | CtBP-E1A blk | TRPML1 ag | D2 PAM | Six1-Eya2 blk | PINK1 modulator
CC(C)C(=O)Nc1cccc(N2CCN(CCCN3C(=O)C4CCCCN4C3=O)CC2)c1 (stereo not drawn) | -4.8 | -7.0 | 0.1 | -16.6 | 10.4 | 4.5%
CCCCNC(=O)C1CCCN1C(=O)Nc1ccccc1 (stereo not drawn) | -1.3 | 8.3 | -0.8 | 3.6 | 1.6 | -0.4%
COc1ccccc1COn1c(=O)c(-c2ccco2)[n+]([O-])c2ccccc21 | -2.9 | x | 2.7 | 0.9 | -1.9 | 3.6%
CC[C@]12c3[nH]c4ccc(Cl)cc4c3CCN1C(=O)[C@@H](CC(=O)NCCN1CCOCC1)C[C@@H]2C(=O)N1CCN(C(=O)C2CC2)CC1 | -1.6 | 1.3 | -1.2 | -1.1 | 9.3 | -0.8%
Cc1ccc(CNC(=O)CCCn2c(=O)c3ccccc3n(CC(=O)NC3CCCC3)c2=O)cc1 | -2.2 | -3.0 | -0.1 | 0.6 | 7.6 | 2.0%
COc1ccc(F)cc1S(=O)(=O)Nc1cc2c3c(c1)CCC(=O)N3CCC2 | -3.5 | -0.1 | 2.0 | -8.7 | -21.8 | 2.2%
Cc1ccc(-n2c(Cc3noc4ccccc34)n[nH]c2=S)cc1 | 1.6 | 2.2 | -0.8 | -22.0 | 1.1 | 3.1%
COc1ccc(-c2cnc[nH]2)cc1 | -3.0 | 0.0 | 0.1 | 1.6 | 0.5 | 1.7%
Cc1ccc(C(=O)NNC(=O)COC(=O)COc2ccccc2C#N)cc1 | -2.1 | x | -0.5 | -2.0 | 2.4 | 3.4%
O=C1/C(=N\O)Cc2ccccc21 | -2.0 | 1.8 | 0.3 | -16.3 | 5.2 | x
COc1ccc(NC(=O)CSc2nc(O)c(Cc3ccccc3)c(=O)[nH]2)cc1 | 0.3 | 0.9 | -0.3 | -14.9 | 0.5 | 1.0%
COCCCNC(=O)CSc1nc2ccccc2c(=O)n1CCCC(=O)NCC1CCCO1 (stereo not drawn) | 2.6 | -21.8 | -0.1 | 28.6 | -0.4 | 0.5%
CCSc1cc(N2CC(C)OC(C)C2)nc(-c2ccccc2Cl)n1 (stereo not drawn) | -8.7 | 9.9 | 3.0 | 3.1 | 14.2 | 1.9%
